# YopH inh – inhibitors of Yersinia enterocolitica YopH tyrosine phosphatase; fluorescence Ex485/Em525; inhibition, %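 (about 10 µM by stock and volumes)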; 0.16% of 140,000 active;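 active means inhibition of 50% or more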;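 further: controls were vehicle for no effect and minimum signal wells for full effect; inactives centre near -20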
# RecA intein inh – Mtb RecA intein splicing inhibition | AID 2221 | cell-free RecA intein splicing, fluorescence | inhibition, %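 (about 9 µM by stock and volumes)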 | P9WHJ3 | 0.75% of 290,000 active; in the data active means inhibition above about 30%; inconclusive means no clear call, values can overlap the other calls;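 further: 0% = vehicle wells and 100% = reference inhibitor control wells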
# Target sequence (P9WHJ3 whole entry, looked up): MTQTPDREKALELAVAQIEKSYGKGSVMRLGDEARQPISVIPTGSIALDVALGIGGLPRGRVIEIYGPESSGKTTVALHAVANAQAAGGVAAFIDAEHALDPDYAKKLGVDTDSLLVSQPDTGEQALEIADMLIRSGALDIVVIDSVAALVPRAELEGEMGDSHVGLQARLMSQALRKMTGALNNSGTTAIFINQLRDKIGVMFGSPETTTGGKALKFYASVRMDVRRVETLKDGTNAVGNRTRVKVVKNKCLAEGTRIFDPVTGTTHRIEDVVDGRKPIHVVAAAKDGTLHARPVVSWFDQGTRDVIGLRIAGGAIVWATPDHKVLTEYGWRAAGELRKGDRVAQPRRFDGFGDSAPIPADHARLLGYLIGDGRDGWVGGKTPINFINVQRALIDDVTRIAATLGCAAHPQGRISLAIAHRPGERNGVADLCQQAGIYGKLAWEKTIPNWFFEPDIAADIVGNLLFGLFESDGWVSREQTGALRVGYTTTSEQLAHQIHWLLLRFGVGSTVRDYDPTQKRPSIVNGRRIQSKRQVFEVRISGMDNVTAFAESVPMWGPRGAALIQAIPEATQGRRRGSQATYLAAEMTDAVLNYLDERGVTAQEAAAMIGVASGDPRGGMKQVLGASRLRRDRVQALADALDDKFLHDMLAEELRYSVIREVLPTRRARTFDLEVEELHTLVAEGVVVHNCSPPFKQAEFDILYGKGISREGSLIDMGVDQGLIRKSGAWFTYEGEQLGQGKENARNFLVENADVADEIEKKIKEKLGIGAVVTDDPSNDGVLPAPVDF
# Mtb betalactam – beta-lactam sensitization of Mtb H37Rv; 0.27% of 330,000 active; M. tuberculosis H37Rv growth with meropenem, percent inhibition; hits of this screen are not shown here; inhibition, % at 25 µM;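 active means about 74% or more and at least 40 points above the plate without the antibiotic, then above 30% in a dose series; inconclusive means first-round hits that could not be retested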;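 further: growth measured after seven days incubation then overnight dye step; 0% = bacteria only wells and 100% = bacteria with antibiotic; twin plates without the antibiotic show which effects depend on it; some results filed as inactive read as strong as hits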
# Arbovirus inh – antivirals against arbovirus infection; arbovirus infection cell-based antiviral screen; inhibition, % at 10 µM; 0.37% of 200,000 active;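 active means inhibition from about 30%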;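 further: bluetongue infection of BSR cells; cell survival read as ATP light after 72 h; 0% = infected wells without compound and 100% = uninfected wells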
# Mtb H37Rv – M. tuberculosis H37Rv growth inhibitors, H37Rv strain (AID 1626) | M. tuberculosis H37Rv growth inhibition; higher % means a stronger effect | one-dose inhibition, % at 10 µM; IC50 in µM for titrated hits | 0.95% of 220,000 active;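 active means confirmed in a dose series; inconclusive means inhibition above 80% but not taken into the dose series; inactive means below 80% or under 30% at every dose of the series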;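 further: bacteria incubated seven days before Alamar blue readout; 0% = bacteria only wells and 100% = bacteria with antibiotic wells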
# Arbovirus inh repeat – also measured in Arbovirus inh; calls as there; inhibition, %; measured here: 10K subset replicate screen; many hits read low in the repeat;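 first of two repeat runs on a subset; 0% = infected and 100% = uninfected wells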
# * marks the source's active call; other numbers are inactive results; ? = inconclusive; · = not tested or not shown. These rows are one share of the data; rates above refer to the full screens.
# Start of the listing, in advance (3 entries):
SMILES,YopH inh,RecA intein inh,Mtb betalactam,Arbovirus inh,Mtb H37Rv,others
N#C/C(=C\Nc1ccc2c(c1)OCCO2)C(=O)NCc1ccco1,·,-1.3,-7,·,-10%,
O=C(CN1CCOCC1)N1CCN(c2ccc3ccccc3n2)CC1,·,·,·,-3,-3%,
CC(=O)Nc1cc(OC(C)=O)c2nonc2c1OC(C)=O,76*,·,99,·,40%,

# The list itself (from the top)
SMILES,YopH inh,RecA intein inh,Mtb betalactam,Arbovirus inh,Mtb H37Rv,others
N#C/C(=C\Nc1ccc2c(c1)OCCO2)C(=O)NCc1ccco1,·,-1.3,-7,·,-10%,
O=C(CN1CCOCC1)N1CCN(c2ccc3ccccc3n2)CC1,·,·,·,-3,-3%,
CC(=O)Nc1cc(OC(C)=O)c2nonc2c1OC(C)=O,76*,·,99,·,40%,
CCN1CCN(c2nc3ccccn3c(=O)c2/C=C(\C#N)S(=O)(=O)c2ccccc2)CC1,·,-41,-5,·,-8%,
O=C(c1ccccc1N(Cc1ccccc1)S(=O)(=O)c1ccccc1)N1CCOCC1,·,0.8,-4,·,·,
O=C(CSc1nnc(-c2ccc(Cl)cc2)n1Cc1ccco1)NCc1ccc2c(c1)OCO2,-26,-1.3,1,-11,2%,
CCOC(=O)c1ccc(NC(=O)CC2SC(=NC)N(C)C2=O)cc1 (configuration not stated),-24,·,3,-2,3%,Arbovirus inh repeat=8
CCOC(=O)C1CCN(c2c(NCc3ccc(C(=O)NCCOC)cc3)c(=O)c2=O)CC1,-2,0.7,-2,-2,3%,
CC1CCCN(C(=O)CN2CCN(C(=O)c3ccco3)CC2)C1 (configuration not stated),-23,1.7,-6,11,-5%,
O=C(CSc1nnc(-c2ccc(F)cc2)n1CC1CCCO1)NCc1ccco1 (configuration not stated),·,3.9,-13,·,·,
NC(=S)Nn1c(-c2ccccc2)nc2ccccc2c1=O,-16,-3.3,-2,9,4%,
Cc1cccnc1NC(=O)c1ccc(S(=O)(=O)NCc2ccco2)cc1,·,-2.7,-3,·,·,
Cc1sc2nc(CSc3ccccc3)nc(NCCN(C)C)c2c1C,-35,7.2,-1,-29,5%,
CCC(=O)N1c2ccccc2NC2=C(C(=O)CC(c3ccco3)C2)C1c1ccco1 (configuration not stated),-23,-3.4,-9,3,0%,Arbovirus inh repeat=2
COc1ccccc1N1CCN(C(=O)C(=O)N/N=C/c2cccc(O)c2)CC1,-26,-2.4,-12,-2,-3%,

# The list goes on, overlapping the part above by three compounds.
SMILES,YopH inh,RecA intein inh,Mtb betalactam,Arbovirus inh,Mtb H37Rv,others
Cc1sc2nc(CSc3ccccc3)nc(NCCN(C)C)c2c1C,-35,7.2,-1,-29,5%,
CCC(=O)N1c2ccccc2NC2=C(C(=O)CC(c3ccco3)C2)C1c1ccco1 (configuration not stated),-23,-3.4,-9,3,0%,Arbovirus inh repeat=2
COc1ccccc1N1CCN(C(=O)C(=O)N/N=C/c2cccc(O)c2)CC1,-26,-2.4,-12,-2,-3%,
CCn1ncc(CN2CCC(Oc3cc(C(=O)NC4CC4)ccc3OC)CC2)c1C,·,1.7,0,·,·,
O=C(Cn1c(NCCO)nc2ccccc21)NCC1CCCO1 (configuration not stated),·,-3.5,-5,4,4%,
O=C(COC(=O)c1cccc(Cl)c1Cl)NC1CCCC1,·,-1.8,-5,·,·,
CCOc1ccccc1Nc1cc(C)c2cccc(C)c2n1,·,0.2,24,·,·,
CN(C)CCCNc1ncnc2c1c(-c1ccccc1)cn2-c1ccccc1,·,7.3,-6,·,·,
COc1ccc(N(Cc2cc3ccccc3[nH]c2=O)S(=O)(=O)c2ccc(OC)cc2)cc1,·,-2.1,4,·,·,
Cc1cc([N+](=O)[O-])nn1CC(=O)Nc1ccc(Cc2ccncc2)cc1,-28,0.7,7,2,1%,
COc1ccc(NC(=O)Nc2cccnc2)c(OC)c1,·,-0.1,-2,-6,8%,
C=CCc1cc(Cl)ccc1OCCNCCCOC,-10,-1.4,-2,-26,-3%,
CCNC(=S)N1CCN(CCN2C(=O)c3cccc4cccc(c34)C2=O)CC1,·,1.1,-8,-7,0%,
COC(=O)c1cc(OC)c(OC)cc1NC(=O)Nc1ccc(OC)cc1,-19,-0.1,5,2,5%,
COc1ccc(-n2ccnc2SCC(=O)NC2CCCC2)c(OC)c1,·,-2.3,-5,-6,-4%,
CCN1CCN(c2nc(NCCO)c3ccccc3n2)CC1,·,-4.9,1,·,·,
Cc1ccnc(N2CCCC(C(=O)NC3CC3)C2)n1 (configuration not stated),·,-1.2,-5,·,·,
CC(C)CC(=O)Nc1ccnn1C1CCN(C(=O)c2ccc(F)cc2Cl)CC1,·,-1.1,2,·,·,
COc1ccc(-c2[nH]ncc2CN2CCCC(C(=O)c3ccc(OC)cc3OC)C2)cc1 (configuration not stated),·,2.6,-5,3,2%,
CC(CCc1ccccc1)NC(=O)Cc1ccc([N+](=O)[O-])cc1 (configuration not stated),-26,0.8,-6,7,7%,
Cc1n[nH]c(C)c1CN(C)C(=O)C1CCC(=O)N(CCc2cccc(F)c2)C1 (configuration not stated),·,0.3,1,·,·,
COc1ccccc1C1C([N+](=O)[O-])=CC([N+](=O)[O-])=CN1C (configuration not stated),-25,1.6,2,-5,5%,
CC(CCc1ccccc1)NC(=O)c1nnc(Cc2ccc(F)cc2)o1 (configuration not stated),-20,-0.5,-2,-5,·,Arbovirus inh repeat=-5
COc1ccc(CCNC(=O)c2c[nH]c3ccc(F)cc3c2=O)cc1OC,·,-0.3,9,·,·,
CCN1CCN(C(=O)/C=C/c2cccc(Cl)c2)CC1,·,0.8,-4,·,·,
O=C(NC1CCCC1)C(c1ccccn1)N(C(=O)c1csnn1)c1ccccc1 (configuration not stated),·,0.1,10,·,·,
CC(O)[C@H]1CNC(=O)C(=O)N1CCc1cccc2ccccc12 (some centres not stated),·,-0.8,-6,·,0%,
CCOc1ccccc1C1NC(=O)CCC1[N+](=O)[O-] (configuration not stated),·,-2.7,0,·,·,
COc1cccc(NC(=O)CN(C)C(=O)CN2C(=O)NC(C)(c3ccc4ccccc4c3)C2=O)c1 (configuration not stated),·,-0.7,1,·,·,
COc1cc(NC(=S)NN2CCOCC2)cc(OC)c1,-17,·,·,·,-10%,
CC(C)(C)NC(=O)CSc1nsc(SCC(=O)NC(C)(C)C)c1C#N,-43,-0.8,2,10,-8%,
O=C(CSc1nccn1Cc1ccco1)Nc1ccccc1C(F)(F)F,·,-0.4,5,·,·,
COCC(CN1CCN(C2=NS(=O)(=O)c3ccccc32)CC1)OC(=O)c1ccccc1 (configuration not stated),·,0.3,5,·,·,

# Of the compounds above, these contain an NH in an aromatic ring:
SMILES,YopH inh,RecA intein inh,Mtb betalactam,Arbovirus inh,Mtb H37Rv,others
COc1ccc(N(Cc2cc3ccccc3[nH]c2=O)S(=O)(=O)c2ccc(OC)cc2)cc1,·,-2.1,4,·,·,
COc1ccc(-c2[nH]ncc2CN2CCCC(C(=O)c3ccc(OC)cc3OC)C2)cc1 (configuration not stated),·,2.6,-5,3,2%,
Cc1n[nH]c(C)c1CN(C)C(=O)C1CCC(=O)N(CCc2cccc(F)c2)C1 (configuration not stated),·,0.3,1,·,·,
COc1ccc(CCNC(=O)c2c[nH]c3ccc(F)cc3c2=O)cc1OC,·,-0.3,9,·,·,

# Other entries:
SMILES,YopH inh,RecA intein inh,Mtb betalactam,Arbovirus inh,Mtb H37Rv,others
COc1cc(OC)cc(C(=O)Nn2cnnc2)c1,·,0.8,0,·,-6%,
O=C(CN1CCOCC1)Nc1ccc2c(c1)OCO2,·,1.0,4,17,-7%,
CCOc1ccc(NC(=O)CCC(=O)Nc2cc(OC)c(NC(=O)c3ccco3)cc2OC)cc1,·,0.9,13,·,·,
CCOC(=O)c1cnn(-c2ccc(C(F)(F)F)cn2)c1N,-19,2.8,9,-2,-7%,
CC(C)COc1ccc(/C(O)=C2/C(=O)C(=O)N(CCN(C)C)C2c2ccncc2)cc1 (configuration not stated),-28,0.0,-6,3,-6%,
COCCn1c(C(F)(F)F)ccc(NC(=O)c2ccccc2)c1=O,·,0.8,-1,·,·,
CNc1nc(-c2ccc(Cl)cc2)cs1,-21,3.3,46,-6,9%,Arbovirus inh repeat=-1
CC1(C)Cc2c(c(N3CCOCC3)nc3sc(C(=O)N4CCCCC4)c(N)c23)CO1,-17,-2.5,0,4,-3%,Arbovirus inh repeat=-4
CC(C(=O)N1CCOCC1)c1ccc([N+](=O)[O-])cc1 (configuration not stated),-7,-1.2,1,8,-2%,
c1ccc(COc2cccc(CNCc3cccnc3)c2)cc1,·,-1.1,-3,-2,7%,
O=C(NCC1CCCO1)c1onc(CSc2ccc(Cl)cc2)c1C(=O)O (configuration not stated),-6,-2.8,24,5,-13%,
C=CCSc1nsc(N)n1,-55,-4.3,?,5,-2%,
CCC(C)c1ccc(OCC(=O)Nc2cccc(C(=O)Nc3ccc(C(=O)O)cc3)c2)cc1 (configuration not stated),·,3.5,12,·,·,
Cc1ccc(Cl)cc1N=C(N)N=C(N)N,·,0.4,-6,9,3%,
Cc1ccc(C(=O)/C=C/c2ccccc2)o1,-22,1.6,14,-21,-6%,

# Ordered by molar mass (smallest number first): three of the compounds above
SMILES,YopH inh,RecA intein inh,Mtb betalactam,Arbovirus inh,Mtb H37Rv,others
Cc1ccc(C(=O)/C=C/c2ccccc2)o1,-22,1.6,14,-21,-6%,
CNc1nc(-c2ccc(Cl)cc2)cs1,-21,3.3,46,-6,9%,Arbovirus inh repeat=-1
Cc1ccc(Cl)cc1N=C(N)N=C(N)N,·,0.4,-6,9,3%,

# Next section.
SMILES,YopH inh,RecA intein inh,Mtb betalactam,Arbovirus inh,Mtb H37Rv,others
Cn1nnnc1SCc1nnc(-c2ccc(F)cc2)o1,-12,-15,-10,7,-4%,
O=C(Nc1cc(C(F)(F)F)ccc1N1CCOCC1)C1=COCCO1,·,-5.8,-2,·,·,
O=C1C2CSCN2C(=O)CN1CCCN1CCN(C(c2ccccc2)c2ccccc2)CC1 (configuration not stated),-7,2.7,4,-4,-2%,
CCOC(=O)CN1C(=O)/C(=C2\SC(=S)N(NC(=O)c3cccnc3)C2=O)c2ccccc21,·,-0.2,8,·,·,
Clc1ccc(OCCCc2nc(-c3cccnc3)no2)c(Cl)c1,-13,1.3,46,-12,16%,
CC1CCN(S(=O)(=O)c2ccc(C(=O)Nc3sccc3C(N)=O)cc2)CC1,-40,-1.0,2,-35,5%,
CC(Nc1nc(C(F)(F)F)nc2ccccc12)c1cccs1 (configuration not stated),·,6.9,4,·,·,
CC(C)C(=O)NC(=S)Nc1ccc(S(=O)(=O)N2CCCC2)cc1,-17,0.4,3,-2,8%,
Cc1onc(-c2c(Cl)cccc2Cl)c1C(=O)N[C@@H]1C(=O)N2[C@@H]1SC(C)(C)[C@@H]2C(=O)O,·,0.9,-3,·,·,
Cc1ccc(C(=O)NCc2ccc3c(c2)OCO3)cc1S(=O)(=O)N1CCOCC1,2,1.3,2,11,5%,
COc1ccc(CCC(=O)Nc2cc(S(C)(=O)=O)ccc2Cl)cc1,·,-0.3,-12,2,6%,
COc1cccc(NC(=O)Nc2ccc(C)c(Cl)c2)c1,·,-4.1,-4,0,7%,
CN(C)/C=C/C(=O)c1c(F)cccc1F,·,1.2,-3,·,5%,
Cc1ccccc1CS(=O)(=O)Cc1ccc(C(=O)NCc2cccnc2)o1,-48,-1.5,1,10,5%,
COC(=O)c1[nH]c2c(c1C)C(=O)CC(c1cc(OC)ccc1OC)C2 (configuration not stated),-18,2.0,9,-12,-9%,Arbovirus inh repeat=-14
Clc1cccc(CNCC2CCCO2)c1Cl (configuration not stated),·,0.3,-10,·,·,
COc1ccc(-c2cc(C(F)(F)F)nc(SCC(=O)NCc3ccco3)n2)cc1OC,-26,-5.0,-8,-5,-7%,

# Screening data: PubChem BioAssay, several laboratories
